StopGo reporter – lowers the luciferase signal of an FMDV 2A StopGo reporter; human cells with a luciferase reporter of 2A StopGo recoding; control for the full effect not named in the record; AID 1159524; Potency, µM (highest dose often 57.9 µM), for the others: at the top dose signal change, negative = less light; actives 1.2% (n = 410,000); active = well fitted falling curve with a large enough effect; inconclusive = small, poorly fitted or top-dose-only effect; inactive = no such curve, though single readings can be large or run the other way; tested in HEK293T cells; further: on the % scale 0 is the no-effect control and ±100 the full control effect; nearly all actives have a fitted effect of over 45% in size; luciferase light after 4 h
RE007 growth inh – less growth of the S. pombe RE007 Vpr strain; actives 0.21% (n = 360,000); AID 651644; Potency, µM (series often up to 92.2 µM), for the others: top-dose activity change, negative = less growth; S. pombe RE007 Vpr strain, BacTiter-Glo ATP luminescence, 24 h; control for the full effect not named in the record; active = well fitted falling curve with a large enough effect; inconclusive = small, poorly fitted or top-dose-only effect; inactive = no such curve, though single readings can be large or run the other way;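 further: on the % scale 0 is the no-effect control and ±100 the full control effect; nearly all actives have a fitted effect of over 50% in size; the assay follows cell death caused by Vpr and the record does not say whether a fall means rescue or toxicity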
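Fission yeast strain RE007, carrying one chromosomally integrated HIV-1 vpr copy, was seeded at OD 0.01 in PMG+AL medium with 23 nL pinned compound. After 24 h at 30 °C and 99% humidity, viability was read by BacTiter-Glo luminescence.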
Cruzain inh noDet – cruzain (T. cruzi) inhibition without detergent | purified cruzain, Z-FR-AMC fluorescence, no detergent | Potency, µM, for the others: max response, negative = inhibition, usual class: inhibitors | actives 2.3% (n = 200,000) | AID 1476; active means well fitted curve in the direction sought with a large enough effect; inconclusive means small, poorly fitted or top-dose-only effect, or another doubt; inactive means no such curve, though single readings can be large; an effect the other way counts as inactive or inconclusive;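 further: plate controls were enzyme without inhibitor for no effect and buffer without enzyme for full effect; nearly all actives have a fitted effect of over 40% in size; top concentration of the series not given in the record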
Target sequence (P25779 123-467 limits assumed): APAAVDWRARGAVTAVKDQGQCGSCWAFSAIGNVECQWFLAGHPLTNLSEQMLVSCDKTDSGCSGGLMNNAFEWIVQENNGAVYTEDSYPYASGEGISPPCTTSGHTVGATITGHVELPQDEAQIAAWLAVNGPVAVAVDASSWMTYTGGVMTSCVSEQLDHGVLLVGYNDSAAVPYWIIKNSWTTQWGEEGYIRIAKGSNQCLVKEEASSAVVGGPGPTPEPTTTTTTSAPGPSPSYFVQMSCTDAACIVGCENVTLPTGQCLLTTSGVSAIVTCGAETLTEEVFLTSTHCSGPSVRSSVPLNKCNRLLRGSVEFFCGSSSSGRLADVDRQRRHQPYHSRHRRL
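Detergent-free condition (0.00005% Triton X-100) in acetate buffer pH 5.5 with DTT. 1.5 nM enzyme and compound were pre-mixed 15 min, then 2 uM Z-FR-AMC substrate added; reaction progress from fluorescence change between first and third reads (60 s).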
NS1 function inh – blocks influenza NS1 protein function; S. cerevisiae slowed by influenza A NS1, growth recovery by OD600; Potency, µM (highest dose often 46.1 µM), without a hit: at the highest dose activity, positive = more growth; actives 0.4% (n = 270,000); AID 2326; further: actives are rising curves; nearly all actives have a fitted effect of over 50% in size
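Read-out: OD600 growth recovery of NS1-expressing budding yeast. Cells grown overnight at 30C in -URA glucose medium, washed, resuspended and diluted 1:100 in 2% galactose assay medium, pH 6.0. Same strain lacking NS1 served as positive control.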
LASV entry inh – blocks Lassa virus binding to or entry into cells. Lassa virus pseudotype entry inhibition, cell reporter; control for the full effect not named in the record. Potency, µM (highest dose often 37.9 µM), for inactives: at the highest dose activity change, negative = inhibition, most hits filed as inhibitors. actives 1.2% (n = 300,000). AID 540256; active means well fitted inhibition curve with a large enough effect; inconclusive means small, poorly fitted or top-dose-only effect, or effect the other way; inactive means flat fitted curve, though single readings scatter; tested in HEK293 cells; further: on the % scale 0 is the no-effect control and ±100 the full control effect; nearly all actives have a fitted effect of over 50% in size; luciferase read-out
Cruzain inh Det – inhibitors of Trypanosoma cruzi cruzain with detergent | P25779 | purified cruzain, Z-FR-AMC fluorescence, 0.01% Triton | Potency, µM, inactives show max response, negative = inhibition, actives largely listed as inhibitors | actives 0.43% (n = 200,000) | AID 1478; active means well fitted curve in the direction sought with a large enough effect; inconclusive means small, poorly fitted or top-dose-only effect, or another doubt; inactive means no such curve, though single readings can be large; an effect the other way counts as inactive or inconclusive;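 further: plate controls were neutral wells for no effect and buffer without enzyme for full effect; nearly all actives have a fitted effect of over 40% in size; top concentration of the series not given in the record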
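15 min RT preincubation of 1.5 nM cruzain with compound, then 2 uM Z-FR-AMC added; kinetic AMC fluorescence, 60 s delta. Triton X-100 0.01%, pH 5.5.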
SARS PLP yeast – inhibitors of SARS-CoV papain-like protease in yeast; actives 0.19% (n = 330,000); S. cerevisiae expressing SARS-CoV PLpro, growth rescue; control for the full effect not named in the record; Potency, µM (highest dose often 32.9 µM), for the others: top-dose activity, positive = growth rescue; AID 485353; further: 0% is about no effect; nearly all actives have a fitted effect of over 55% in size; growth read by luminescence after 48 h
MARV entry inh – inhibitors of Marburg virus binding or cell entry; Marburg virus pseudotyped entry inhibition, cell reporter; control for the full effect not named in the record; about a third of the inactives were read at about 46 µM; Potency, µM (titrated, usually from 37.8 µM), inactives show at the top dose activity change, negative = inhibition, hits mostly inhibitors; actives 1.8% (n = 300,000); active = well fitted inhibition curve with a large enough effect; inconclusive = small, poorly fitted or top-dose-only effect, or effect the other way; inactive = flat fitted curve, though single readings scatter; tested in HEK293 cells; about a fifth of its hits are not listed in these tables; further: on the % scale 0 is the no-effect control and ±100 the full control effect; luciferase read-out
* marks the source's active call; other numbers are inactive results; ? = inconclusive; / = not tested or not shown; & = joins results of further samples; [ ] = remark or other dose. Unless noted, the call rests on the fitted dose curve; in most records, active means well fitted rising curve with a large enough effect; inconclusive means small, poorly fitted or top-dose-only effect; inactive means no such curve, though single readings can be large or run the other way. Potency means the concentration at half of the fitted maximal effect.

canonical_smiles	SARS PLP yeast	RE007 growth inh	Cruzain inh noDet	LASV entry inh	NS1 function inh	MARV entry inh	Cruzain inh Det	StopGo reporter
Cn1cccc1/C=N/NC(=O)Cc1cccc2ccccc12	-7%	8%	/	?	/	?	/	-1%
Cc1[nH]c2ccccc2c1/C=N/Nc1ccc([N+](=O)[O-])cc1S(=O)(=O)Nc1ccc(Cl)cc1	11%	27%	5µM*	9%	19%	-5%	4.5%	60%[activator]
CCOC(=O)Cc1csc(-n2sc3ccccc3c2=O)n1	-21%	-6%	-10%	/	-67%	4%	-4.8%	49%[activator]
O=C(CN1CCN(c2ccccc2O)CC1)Nc1cc([N+](=O)[O-])ccc1Cl	-2%	-25%	/	/	0%	/	/	-10%
O=C(CC1C(=O)NCCN1Cc1ccccc1C(F)(F)F)NCCn1cccn1 (stereo unspecified)	0%	1%	/	4%[46.1 µM]	3%	7%[46.1 µM]	/	8%
COc1ccc(NC(=O)C(=O)NCCc2sc(-c3ccc(Cl)cc3)nc2C)cc1	/	/	-3%	12%[46.1 µM]	/	/	-0.2%	14%
Cn1c(=O)[nH]c2cc(-c3noc(-c4ccc(Br)cc4)n3)ccc21	/	/	-4%	15%[46.1 µM]	/	/	-1.0%	-7%
CCN(CC(=O)Nc1ccc(OC)c(OC)c1)S(=O)(=O)c1ccc(C)cc1	3%	19%	0%	-2%	?	0%	6.0%	13µM*
Cc1[nH]c(C)c(S(=O)(=O)NCc2ccc(N(C)C)cc2)c1C(=O)N1CCCC1	?	10%	/	9%[46.1 µM]	-2%	?	/	18%
Cc1ccc(NC(=O)CN(C)C(=O)c2cc(-c3ccco3)nc3ccccc23)cc1	2%	-17%	/	-20%	/	-16%[46.1 µM]	/	0%
O=C(Nc1ccccc1)N(Cc1cccc(Cl)c1)c1ccccn1	/	/	6%	-8%[46.1 µM]	/	-11%[46.1 µM]	-4.6%	0%
C/C(=N\NC(=O)c1nnn(-c2nonc2N)c1-c1ccc2c(c1)OCO2)c1ccc(C)cc1	2%	6%	/	-20%[46.1 µM]	21%	1%[46.1 µM]	/	-8%
COc1ccc(/C=C2\SC(=O)N(CC(=O)NC3C=CS(=O)(=O)C3)C2=O)cc1 (stereo unspecified)	-5%	-7%	/	/	-6%	/	/	-14%
CC(=O)N(C)c1cccc(-c2ccc3nnc(C)n3n2)c1	-1%	-15%	/	27%[46.1 µM]	2%	-3%[46.1 µM]	/	13%
Cn1c(=O)oc2cc(S(=O)(=O)Nc3ccc(Cl)cc3F)ccc21	28%	-3%	-3%	/	-4%	/	-0.4%	54%[activator]
COc1ccc(C(=O)C[n+]2ccccc2/C=N/O)cc1	-16%	5%	14%	?	4%	?	-0.7%	11%
Cc1ccc(Cn2nc(C)c(NC(=O)C3CC3)c2C)cc1	-3%	3%	-23%	6%	12%	-1%	-1.9%	-13%
O=C1c2ccccc2C(=O)N1CCc1nc2ccccc2c(=O)n1Cc1ccco1	6%	-10%	-6%	-2%	-105%	-2%	0.0%	28µM*
CCOc1ccc2[nH]c(=O)c(CN(CCN3CCCC3)C(=S)Nc3ccccc3OC)cc2c1	0%	-7%	/	-8%	-6%	?	/	-13%
COc1ccc(N(CC(=O)NN=C2CCCCCCC2)S(=O)(=O)c2ccccc2)cc1Cl	6%	4%	-1%	-30%	22%	-11%	-3.9%	27%
COc1cccc(C(=O)NCCCNC(=O)c2ccco2)c1	-1%	-1%	/	-11%[46.1 µM]	-12%	9%[46.1 µM]	/	2%
N#Cc1ccc(C=NN2CCCCCC2)cc1	/	-10%	/	20%	/	9%	/	16%
COC(=O)c1sc(N)c(C(=O)OC)c1COC(=O)[C@@H](NS(=O)(=O)c1cccc(Cl)c1)C(C)C	?	15%	10%	?	-2%	-25%	-7.6%	0%
Cc1[nH]n(-c2nc(-c3cccc([N+](=O)[O-])c3)cs2)c(=O)c1C	-16%	-17%	-6%	0%	15%	-20%	-7.5%	8%
CCOC(=O)C1CCCN(S(=O)(=O)c2ccc(C)cc2)C1 (stereo unspecified)	3%	0%	6%	-6%	-13%	?	-0.7%	0%
Cc1ccc(-n2ncc3c(Nc4ccccc4C)ncnc32)cc1	/	/	-7%	4%[46.1 µM]	/	/	-10%	-1%
C(=Nc1ccc(N2CCOCC2)cc1)c1c[nH]c2ccccc12	-1%	12%	/	?	25%	?	/	50%[activator]
CCN(CC)c1ccc(/C=c2\sc3nnc(-c4ccccc4Cl)n3c2=O)cc1	10%	2%	13µM*	?	2%	3%	1.2%	-22%
Cn1c2ccc(F)cc2c2ncn(CCCN(CCO)CCO)c(=O)c21	-7%	-15%	-7%	10%	1%	-24%	-4.6%	0%
O=C(Cc1cccc2ccccc12)N/N=C/c1ccc(F)cc1	2%	12%	-5%	-15%	-1%	2%	0.5%	/
CCOc1ccccc1NC(=O)c1cc(S(=O)(=O)N2CCC3(CC2)OCCO3)ccc1F	5%	0%	?	-13%[14.3 µM]	-55%	0%&-15%	-1.1%	-15%
CCc1nc2ccccc2n1CC(=O)OCC(=O)N(CC(C)C)c1c(N)n(Cc2ccccc2)c(=O)[nH]c1=O	-7%	3%	/	-1%	/	9%	/	-11%
O=c1[nH]c(SCc2ccccc2Cl)nc2[nH]ncc12	0%	-9%	/	?	2%	8%[46.1 µM]	/	8%
CC1(C)C(C(=O)O)N2C(=O)C(NC(=O)Cc3ccccc3)C2S1=O (stereo unspecified)	5%	9%	/	16%[46.1 µM]	11%	1%[46.1 µM]	/	7%
CCc1ccccc1N1C(=O)C2C3CC(=O)C(c4ccccc43)C2C1=O (stereo unspecified)	-1%	9%	/	-5%	-1%	5%	/	0%
Cc1ccc(C)c(C(=O)Nc2nc3ccccc3[nH]2)c1	-1%	0%	/	/	-4%	-16%[46.1 µM]	/	38%[activator]
Cc1oc2c(C)c3oc(=O)c(CCC(=O)O)c(C)c3cc2c1-c1ccccc1	-3%	6%	/	/	1%	/	/	?
O=C(NCC1CCCO1)c1cc(Br)c(Br)s1 (stereo unspecified)	1%	5%	/	-28%[46.1 µM]	-14%	0%[46.1 µM]	/	6%
O=C(Oc1cccc(C(=S)N2CCOCC2)c1)c1ccccc1	-2%	3%	/	10%	-9%	0%[46.1 µM]	/	-14%
COCCn1c(SCC(=O)Nc2ccccc2F)nc2c(c1=O)SCC2	4%	1%	/	/	4%	/	/	-17%
COc1cc(OC)c(OC)cc1CN1CCN(C(=O)Cc2ccccc2)CC1	6%	-3%	/	/	2%	/	/	2%
Cc1cc(-c2csc(NC(=O)c3ccc(C#N)cc3)n2)c(C)n1Cc1ccco1	4%	-12%	7.9µM*	0%	?	5%	-3.2%	?
CCN(CC(=O)N1CCC(C(N)=O)CC1)S(=O)(=O)c1cc(Cl)ccc1Cl	/	-1%	/	11%	/	8%[46.1 µM]	/	12%
Cn1c(C(=O)N2CCN(C(=O)c3ccco3)CC2)cc2c(=O)n(C)c3ccccc3c21	-5%	-9%	-15%	/	-1%	2%	-5.9%	-15%
CC(C)CCNc1nc(Nc2ccccc2)c2cnn(C)c2n1	/	/	?	27%[46.1 µM]	/	/	-16%	-10%
COC(=O)Cn1c(CN(Cc2ccccc2)Cc2ccccc2)nc2c1c(=O)[nH]c(=O)n2C	-3%	7%	?	-18%	-7%	-20%	5.4%	0%
O=C(Nc1ccc(S(=O)(=O)Nc2ccccn2)cc1)c1cccc(Cl)c1	1%	-18%	/	/	5%	-3%[46.1 µM]	/	32%[activator]
Cc1cc(C)c([C@@H]2C[C@H]3CN(C4CCCC4)C(=O)[C@]34CCCN24)c(-n2cccn2)c1	-1%	-3%	/	-23%	-1%	?	/	-19%
Cc1ccsc1C1Nc2ccccc2C(=O)N1O (stereo unspecified)	20%	/	5%	2%	0%	?	-2.9%	-9%
CC(C)N(Cc1ccccc1)C(=S)Nc1ccc(F)cc1	0%	7%	/	-19%	/	10%[46.1 µM]	/	5%
COC(=O)CSc1ccc2nnc(CCNS(=O)(=O)c3ccc(C)cc3)n2n1	2%	3%	0%	18%[46.1 µM]	/	/	-0.7%	-3%&-13%
CCOc1ccc(-c2nnn(CC(=O)NCc3ccccc3)n2)cc1	-4%	-7%	/	?	/	?	/	?
COc1ccc(-c2nn(C)c3sc(C(=O)Nc4cccc(F)c4)cc23)cc1OC	/	/	?	?	/	/	-0.3%	?
Cc1ccc(NC(=S)N(CCCN2CCCC(C)C2)Cc2ccco2)cc1C (stereo unspecified)	-1%	-12%	/	-4%[46.1 µM]	-3%	?	/	21%
COc1cccc(-n2c(-c3ccccc3F)nc3c(cnn3-c3ccc(C)cc3)c2=O)c1	/	/	-8%	?	/	-22%[46.1 µM]	-13%	-21%
CC1CCCN(C(=O)NC(=O)c2ccc(Cl)cc2)C1 (stereo unspecified)	3%	-9%	/	20%[46.1 µM]	19%	3%[46.1 µM]	/	28%

The listing continues:
canonical_smiles	SARS PLP yeast	RE007 growth inh	Cruzain inh noDet	LASV entry inh	NS1 function inh	MARV entry inh	Cruzain inh Det	StopGo reporter
CCCN1CCN(C(=O)c2ccc(Sc3ccc(C)cc3)c(NC(C)=O)c2)CC1	-1%	7%	3%	-2%	3%	13%	-1.5%	-12%
O=C(Nc1nc(-c2cc3ccccc3o2)cs1)c1ccc(S(=O)(=O)N2CCCC2)cc1	-12%	8%	?	?	3%	?	-5.4%	?
Cc1ccc(Oc2ccc(OCC(=O)NC(CC(C)C)C(=O)O)cc2)cc1 (stereo unspecified)	-2%	31%	/	0%	/	?	/	2%
Cc1ccc(N(Cc2cccs2)C(=O)Nc2cccc(Cl)c2)cc1	/	/	-5%	-8%[46.1 µM]	/	-1%[46.1 µM]	-4.4%	0%

Source: PubChem
